BJeLR lethal = kills HRASV12-expressing BJeLR cells; BJeLR (HRASV12) viability, CellTiter-Glo ATP luminescence, 48 h; reference of the scale not given here; inhibition, % (concentration not given with the values); actives 0.17% (n = 300,000);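 active = replicate mean above 50%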;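 note: 50 nL library stock added to about 25 µL; numbers are from one replicate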
PrP 5UTR inh = inhibition of PrP 5' UTR reporter expression | cell-based PrP 5' UTR mRNA reporter, plate reader | inhibition, % (test concentration not listed) | actives 0.35% (n = 340,000) | AID 488862;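 active = every replicate at 50% or more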;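 note: 0 = median of the neutral control wells; tested in H4 reporter cells; numbers are from one replicate; inactives centre near -14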
Active calls of the source: *; nt = not tested or not shown.

SMILES	BJeLR lethal	PrP 5UTR inh
CN1C2C=C3C(C#N)=C(N)C(C#N)(C#N)[C@@H](c4ccsc4)[C@@H]3C1CC2 (stereo partly specified)	11	nt
COc1c(N2CCN[C@H](C)C2)c(F)cc2c(=O)c(C(=O)O)cn(C3CC3)c12	6	nt
OCCCc1nc2n(n1)C(c1cccs1)C=C(c1ccccc1)N2 (stereo unspecified)	11	nt
C#CCOCCOCCOCCNc1nc(N2CCN(C(=O)[C@H]([C@@H](C)CC)n3cc([C@@H](N)Cc4ccc(O)cc4)nn3)CC2)nc(N2CCN(C(=O)[C@H](CCCCN)n3cc([C@@H](N)CC(C)C)nn3)CC2)n1	-2	nt
CCOC(OCC)c1cn(Cc2ccc3c(c2)C(=O)c2ccccc2C3=O)nn1	-8	nt
COc1ccc(Cl)cc1Nc1nc(-c2sc(NC(=O)c3ccccc3)nc2C)cs1	22	nt
COc1ccc(O[C@H]2C=C[C@@H](c3ccccc3)O[C@@H]2COC(=O)CC/C(C)=N/O[C@@H](C)CN2CCCCc3nc(C)c(C)cc32)cc1	4	nt
Cc1ccc(OCc2nnc(NC(=O)OCC(C)C)s2)c(C)c1	0	nt
Cc1cc(C2=CC(C)(c3cc(C)oc3C)Nc3nc(C(F)(F)F)nn32)c(C)o1 (stereo unspecified)	11	nt
CNC(=O)c1c(NC(=O)c2ccc(S(=O)(=O)N3CCCC3)cc2)sc2c1CCN(C(C)C)C2	2	nt
CC[C@@H]1CC=C[C@H]2[C@H]1C(=O)N(Cc1ccccc1)[C@H]2c1ccc2ccccc2c1	15	nt
CC1(C)[C@@H](O)CC[C@]2(C)C3C(O)C=C4[C@H]5C[C@@](C)(C(=O)O)CC[C@]5(C)CC[C@]4(C)[C@]3(C)CC[C@@H]12 (stereo partly specified)	-10	nt
CC(C)=CCC/C(C)=C/CC(C)(C)CNCCN1CCNCC1	7	nt
CCOc1ccc(CCN2C(=O)C(=O)N([C@H](CCCN(C)Cc3ccccc3)CNCc3ccccc3)C[C@@H]2C(C)C)cc1	13	nt
C(=N\Nc1nc(Nc2ccccc2)nc(N2CCOCC2)n1)/c1c[nH]c2ccccc12	-2	nt
COc1ccccc1/C=N/NC(=Nc1ccc(C)cc1)c1nc2ccccc2s1	-1	nt
COc1ccc(OC)c(N=C2SCCCN2C(=O)c2ccc(N3C(=O)CCC3=O)cc2)c1	-10	nt
C#CCOCCOCCOCCNc1nc(N2CCN(C(=O)[C@H](CCC(=O)O)n3cc(C(N)CO)nn3)CC2)nc(N2CCN(C(=O)[C@H](Cc3ccc(O)cc3)n3cc(C(N)CC(C)C)nn3)CC2)n1 (stereo partly specified)	-7	nt
CCOC(=O)/C=c1\s/c(=C\c2sccc2C)c(=O)n1CC(=O)NCc1ccc(C)cc1	-5	nt
CCCC[C@@H]1C[C@H]1[C@@H](NC(=O)c1ccco1)c1ccc(C(=O)OC)cc1	1	nt
CC(C)c1cc(C(C)C)c(S(=O)(=O)N2c3ccccc3[C@@]3(Br)C[C@H]4C(=O)N[C@@H](Cc5ccccc5)C(=O)N4[C@@H]23)c(C(C)C)c1	-5	nt
Cc1nc(C2CCC3C4CCC5=CC(=O)CC[C@]5(C)C4CC[C@]23C)cs1 (stereo partly specified)	14	nt
Nc1nc2n(n1)C1(CCCCC1)C1=C(CCCC1)N2	-2	nt
COC(=O)[C@@]1(Cc2ccc(F)cc2)[C@H]2c3cc(C(=O)N4CCCC4)n(Cc4ccc(C(F)(F)F)nc4)c3C[C@H]2CN1C(=O)c1ccccc1	6	nt
COc1cccc(N2CCN(c3ncnc4c3[nH]c3ccccc34)CC2C)c1 (stereo unspecified)	10	nt

As a short view, some entries already given.
SMILES	BJeLR lethal	PrP 5UTR inh
CC(C)=CCC/C(C)=C/CC(C)(C)CNCCN1CCNCC1	7	nt
CCOc1ccc(CCN2C(=O)C(=O)N([C@H](CCCN(C)Cc3ccccc3)CNCc3ccccc3)C[C@@H]2C(C)C)cc1	13	nt
C(=N\Nc1nc(Nc2ccccc2)nc(N2CCOCC2)n1)/c1c[nH]c2ccccc12	-2	nt

Further entries follow.
SMILES	BJeLR lethal	PrP 5UTR inh
NC(=O)N/N=C/c1cn(-c2ccccc2)nc1-c1cccnc1	2	nt
Clc1ccc(CO/N=C(\Cn2ccnc2)c2ccc(Cl)cc2Cl)c(Cl)c1	12	nt
COc1ccc(C(=O)O/N=C(/C(N)=O)P(=O)(OC(C)C)OC(C)C)cc1	-1	nt
CCC(=S)/C=C1\Sc2ccc3ccccc3c2N1CCCS(=O)(=O)O	4	nt
C#CCOCCOCCOCCNc1nc(N2CCN(C(=O)[C@H](CCC(=O)O)n3cc(C(N)CO)nn3)CC2)nc(N2CCN(C(=O)[C@H](CCC(=O)O)n3cc(C(N)CC(C)C)nn3)CC2)n1 (stereo partly specified)	4	nt
CSCc1nnc(NC(=O)c2ccc(S(=O)(=O)N(CC(C)C)CC(C)C)cc2)o1	2	nt
CSCCC(NC(=O)c1ccccc1)c1nc(-c2ccccc2)no1 (stereo unspecified)	3	nt
CO[C@H]1O[C@@H]2O[C@@]3(C)CC[C@H]4[C@H](C)CC[C@@H]([C@H]1C)[C@@]24OO3	-2	nt
Cc1noc(C)c1S(=O)(=O)NCCCN1CCN(Cc2ccccc2)CC1	-2	nt
O=C(CSc1nnc(NC(=O)c2ccccc2Cl)s1)Nc1ccc2c(c1)oc1ccccc12	3	nt
COC(=O)C1=C(C(=O)OC)[C@@H]2Nc3ccccc3[C@@]23C[C@@H](C(=O)OC)N(C(=O)NC2CCCCC2)C3=N1	-5	nt
C#CCOCCOCCOCCNc1nc(N2CCN(C(=O)[C@H](CCC(=O)O)n3cc(C(N)Cc4ccc(O)cc4)nn3)CC2)nc(N2CCN(C(=O)[C@H](CCC(=O)O)n3cc(C(N)Cc4ccc(O)cc4)nn3)CC2)n1 (stereo partly specified)	2	nt
COc1cc(/C=C2/C(=O)N(c3ccccc3)N=C2C)ccc1OS(=O)(=O)c1ccccc1	-6	nt
CCN1C(=O)[C@H]2[C@@H](c3ccc(-c4ccc(F)cc4)c(OC)c3)N[C@@](CC(C)C)(C(=O)OC)[C@H]2C1=O	4	nt
CC1(C)S[C@@H]2[C@H](NC(=O)COc3ccccc3)C(=O)N2C1C(=O)OCc1cc2ccccc2n1S(=O)(=O)c1ccccc1 (stereo partly specified)	-5	nt
Cc1cc(C=O)c2c(c1)C=CC1(Oc3ccccc3C(=O)N1C)O2 (stereo unspecified)	16	nt
Cc1cc(/C=N/Nc2nc(N)ncc2[N+](=O)[O-])c(C)n1-c1cccc(C(F)(F)F)c1	6	nt
COc1cc(C(=O)NS(=O)(=O)c2ccccc2C)ccc1Cc1cn(C)c2ccc(NC(=O)OC3CCCC3)cc12	8	nt
O=C(O)c1ccc(Nc2nc(-c3cccnc3)nc3ccccc23)cc1	7	nt
Cc1ccccc1Nc1nnc(SCC(=O)NC(=O)Nc2ccc3c(c2)OCCO3)s1	-10	nt
COc1ccccc1/C=N/n1c(N)c(C(=O)NC2CCCCC2)c2nc3ccccc3nc21	nt	-18
COc1ccc(/C(C)=N/Nc2nccnc2Cl)cc1	nt	-42
COc1ccc2nc(NCc3ccc(OC)c(OC)c3OC)sc2c1	nt	-9
O=C(O)c1cc(C(=O)O)cc(-c2ccc(/C=c3/sc4nc5ccccc5n4c3=O)o2)c1	nt	-26
CCN(C(=O)CO/N=C/c1ccc(OC)cc1OC)c1c(N)n(Cc2ccccc2)c(=O)[nH]c1=O	nt	0
(list continues)
SMILES	BJeLR lethal	PrP 5UTR inh
CC(C)Oc1cc(C(=O)N2CCC(N3CCCCC3)CC2)ccc1Nc1nnc(Cl)c(Nc2ccccc2S(C)(=O)=O)n1	nt	-13
O=C(Cc1ccc([N+](=O)[O-])cc1)Nc1cc(C(F)(F)F)cc(C(F)(F)F)c1	3	-3
COc1ccccc1C(=O)N/N=C(\C)c1cccnc1	-7	-13
C/C(CC(=O)Nc1ccc2c(c1)OCO2)=N\NC(=O)c1ccccc1N	9	-24
COc1cc(C2NCCc3c2[nH]c2ccccc32)ccc1OC(C)C (stereo unspecified)	7	-12
CCOc1cc(/C=N/NC(=O)CN2CCCCC2)ccc1O	-12	-20
CC(C)NC(=S)NC(c1ccccc1)(c1ccccc1)c1ccccc1	11	-8
Cc1ccnc(N2C(=O)c3ccc([N+](=O)[O-])cc3C2=O)c1	-2	-27
CCOC(=O)c1ccc(N=C2C(=S)N(c3ccc(C(=O)OCC)cc3)C(=N)N2/N=C/c2ccccc2)cc1	-2	-24
COc1ccc(C(C)N2CC34C=CC(O3)C(C(=O)OCC(C)C)C4C2=O)cc1 (stereo unspecified)	-8	-3
CC1=NN(c2ccccc2)C(=O)/C1=C/c1ccc(-c2ccc(C)c(C(=O)O)c2)o1	8	-20
CCOC(=O)C1=C(C)N=c2s/c(=C/c3ccc(OCC(=O)O)cc3)c(=O)n2C1c1ccc(OC)cc1OC (stereo unspecified)	-2	6
CC1(C)Cc2c(c(N3CCOCC3)nc3sc(C(=O)Nc4ccccc4)c(N)c23)CO1	10	-30
CNC(=O)C(=O)N/N=C/c1cccnc1	-4	-15
O=C(Nc1nc2c(Br)cc(Br)cc2c(=O)s1)c1ccco1	6	-23
CC(C)(C)/C(O)=C/c1nc2cc(Cl)ccc2oc1=O	-9	-12
COc1cccc(N2CCN(C(=O)c3ccc(CS(=O)c4ccccc4C)o3)CC2)c1 (stereo unspecified)	32	56*
Cc1onc(-c2c(Cl)cccc2Cl)c1C(=O)N/N=C(\N)COc1ccc(Cl)cc1	-3	2
O=C(CNc1n[nH]c(=O)[nH]c1=O)N/N=C/C1CC=CCC1 (stereo unspecified)	0	-2
C(=N\NC1=NCCCCC1)/c1c[nH]c2ccccc12	3	-26
COc1ccc2c(c1)c(/C=N/Nc1nc3ccccc3[nH]1)c(C)n2C	6	-50
O=C(N/N=C/c1cc([N+](=O)[O-])ccc1O)C(O)(c1ccccc1)c1ccccc1	3	-17
Cc1ccc(C(C)C)c(OCC(=O)N/N=C/c2cccn2C)c1	-8	-10
C/C(=N\N1CCN(Cc2ccc(Cl)cc2)CC1)c1ccc(F)cc1	-12	-16
N/C(COc1ccc(Cl)cc1Cl)=N\O	-7	-26
Carrying on.
SMILES	BJeLR lethal	PrP 5UTR inh
CC(C(Sc1ccccc1N)c1ccccc1)[N+](=O)[O-] (stereo unspecified)	1	-10
Cc1cc(C(=O)N/N=C/c2c(C)[nH]c3ccccc23)n[nH]1	10	-22
COc1ccc(CC(=O)n2[nH]c(=O)ccc2=O)cc1OC	8	-117
Cc1cc(-n2c(C)c3c(C)nnc(C)c3c2C)ccc1N	-4	-19
CCC(C(=O)N/N=C(\C)c1cccnc1)c1ccccc1 (stereo unspecified)	7	-1
Cc1nn(Cc2ccccc2)c(C)c1/C=N/NC(=O)c1ccccc1O	4	-20
Cn1cc(NC(=O)Nc2ccc(C(F)(F)F)cc2)c(C(F)(F)F)n1	1	-15
CC(=O)c1sc(N/N=C\c2ccc(N(C)C)cc2)nc1C	-2	-88
COc1ccccc1NC(=O)Nc1nn(C)c2cccc(OC)c12	6	-23

16 successive compounds from above, quoted:
SMILES	BJeLR lethal	PrP 5UTR inh
CC(C)(C)/C(O)=C/c1nc2cc(Cl)ccc2oc1=O	-9	-12
COc1cccc(N2CCN(C(=O)c3ccc(CS(=O)c4ccccc4C)o3)CC2)c1 (stereo unspecified)	32	56*
Cc1onc(-c2c(Cl)cccc2Cl)c1C(=O)N/N=C(\N)COc1ccc(Cl)cc1	-3	2
O=C(CNc1n[nH]c(=O)[nH]c1=O)N/N=C/C1CC=CCC1 (stereo unspecified)	0	-2
C(=N\NC1=NCCCCC1)/c1c[nH]c2ccccc12	3	-26
COc1ccc2c(c1)c(/C=N/Nc1nc3ccccc3[nH]1)c(C)n2C	6	-50
O=C(N/N=C/c1cc([N+](=O)[O-])ccc1O)C(O)(c1ccccc1)c1ccccc1	3	-17
Cc1ccc(C(C)C)c(OCC(=O)N/N=C/c2cccn2C)c1	-8	-10
C/C(=N\N1CCN(Cc2ccc(Cl)cc2)CC1)c1ccc(F)cc1	-12	-16
N/C(COc1ccc(Cl)cc1Cl)=N\O	-7	-26
CC(C(Sc1ccccc1N)c1ccccc1)[N+](=O)[O-] (stereo unspecified)	1	-10
Cc1cc(C(=O)N/N=C/c2c(C)[nH]c3ccccc23)n[nH]1	10	-22
COc1ccc(CC(=O)n2[nH]c(=O)ccc2=O)cc1OC	8	-117
Cc1cc(-n2c(C)c3c(C)nnc(C)c3c2C)ccc1N	-4	-19
CCC(C(=O)N/N=C(\C)c1cccnc1)c1ccccc1 (stereo unspecified)	7	-1
Cc1nn(Cc2ccccc2)c(C)c1/C=N/NC(=O)c1ccccc1O	4	-20

Some of the compounds tested. The share of hits here may be higher or lower than overall.
